Env fusion inh: HIV envelope-mediated fusion inhibition; hit rate 1.1% among 360,000; inhibition, % at 12.3 µM; HeLa-JRFL Env/CEM21 cell fusion, luciferase;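 active means mean replicate inhibition score of at least 50 and every replicate individually at or above 50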;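 further: 0% = plate neutral controls and 100% = maraviroc near 300 nM; one replicate is shown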
MT1-MMP act inh: blocks activation of human MT1-MMP | GFP/RFP ratio change, % at 20 µM | hit rate 0.061% among 360,000 | HT1080 RFP-PRO-GFP cells, GFP/RFP ratio fluorescence, overnight; percent of plate control window, DMSO zero | AID 651647 | P50281;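 active means GFP/RFP ratio change of at least 30% with cell ATP level not reduced by more than half and red fluorescence within 50% of control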; further: strong numbers were not always called active
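Assay system: RFP-PRO-GFP reporter HT1080 cells; read-out basis: GFP/RFP fluorescence ratio; benchmarks: DMSO wells and RFP-L50D-GFP cells; doses: 20 µM single dose, 1% DMSO; schedule: overnight cell settling, then overnight compound exposure, 37 °C, 5% CO2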
Rce1 inhib: blocks yeast Ras-converting enzyme | Q03530 | yeast membranes, quenched prenylated peptide cleavage fluorescence | calls only | hit rate 0.27% among 290,000 | AID 2563;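 active means fall in fluorescence gain of 50% or more versus controls, with final raw signal at or below 3038400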;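 further: plate controls were neutral control wells for no effect and wells lacking membranes for full effect; tested at 10 µM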
Target sequence (Q03530 whole entry, looked up): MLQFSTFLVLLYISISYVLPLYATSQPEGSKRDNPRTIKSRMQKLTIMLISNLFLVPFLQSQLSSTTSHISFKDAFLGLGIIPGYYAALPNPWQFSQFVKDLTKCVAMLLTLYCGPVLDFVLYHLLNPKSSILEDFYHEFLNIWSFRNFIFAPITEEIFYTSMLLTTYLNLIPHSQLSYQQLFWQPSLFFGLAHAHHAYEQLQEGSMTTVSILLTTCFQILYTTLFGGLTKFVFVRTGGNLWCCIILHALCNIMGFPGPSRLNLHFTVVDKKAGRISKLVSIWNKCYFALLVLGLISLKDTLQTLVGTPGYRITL
PABP FP inh: blocks human PABP binding to poly(A) RNA; fluorescence polarization; P11940; hit rate 1% among 290,000; inhibition, % at 35 µM; AID 2014;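 active means 50% or more with normal probe brightness, or confirmed in later tests; about a fifth of its hits are not listed in these tables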;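 further: calls also rest on retests at 20 µM and on dose response follow-up; controls were probe without protein and protein plus probe with vehicle; some compounds called inactive have numbers as strong as hits; many hits fall short of the cut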
CSC inhib: blocks cancer stem cells; AID 2717; inhibition, % at 7.5 µM; cancer stem cell-like cells viability, luminescence; hit rate 1.1% among 300,000;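 active means mean at 75% or more and at least half the replicates too; tested in HMLE shEcad cells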;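 further: 0% = median of negative and 100% = median of positive control wells; the first replicate is given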
UUG fidelity: modulators of start codon recognition fidelity in yeast. activity score, % at 18.7 µM. S. cerevisiae UUG-firefly luciferase reporter, luminescence/redox ratio. hit rate 0.13% among 350,000;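 active means replicate mean at a twofold rise or more, about +100% in these data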;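 further: firefly luciferase made from a UUG start codon reports start codon fidelity; reporter light over untreated wells divided by growth signal over untreated wells; some hits fall short of that in this replicate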
eIF4H FP inh: inhibitors of RNA binding by human eIF4H; Q15056; inhibition, % at 35 µM; eIF4H fluorescence polarization binding assay; hit rate 0.94% among 290,000; AID 2012;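 active means 50% or more with normal probe brightness, or confirmed in later tests; about a fifth of its hits are not listed in these tables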;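 further: calls also rest on retests at 20 µM and on dose response follow-up; 0% = protein and probe with vehicle and 100% = probe without protein; strong numbers were not always called active; many hits fall short of the cut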
MT1-MMP act inh RFP: also measured in MT1-MMP act inh; calls as there; RFP signal change, %; measured here: RFP expression control read;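 0 = vehicle wells; hits needed this value within 50% of zero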
Starred values were filed as active, the others as inactive; i = inactive; x = not tested or not shown.

Screens by letter: A = Env fusion inh; B = MT1-MMP act inh; C = MT1-MMP act inh RFP; D = Rce1 inhib; E = PABP FP inh; F = CSC inhib; G = UUG fidelity; H = eIF4H FP inh
1. CC(C)CCNC(=O)C1CCC(CNc2c(N3CCCC3)c(=O)c2=O)CC1 (centres undefined)
  A: -8; B: 1; C: -4; D: i; E: 6; F: -9; G: x; H: -9
2. COc1ccc(OC)c(COC(=O)c2cccc(S(=O)(=O)N3CCCCC3)c2)c1
  A: 8; B: 4; C: -5; D: x; E: x; F: -9; G: -13; H: x
3. O=C(COc1ccccc1[N+](=O)[O-])Nc1ccc(N2CCN(C(=O)c3cccs3)CC2)cc1
  A: 20; B: -9; C: -24; D: i; E: -5; F: -9; G: x; H: -4
4. Cc1c(NS(=O)(=O)c2cc(C(=O)NCc3cccnc3)cc(Cl)c2Cl)c(=O)n(-c2ccccc2)n1C
  A: -12; B: 0; C: -2; D: i; E: x; F: 19; G: -3; H: x
5. Nc1ncnc2c1ncn2[C@@H]1O[C@H](CCC(=O)NCc2ccccc2)[C@@H](O)[C@H]1O
  A: 10; B: 9; C: 8; D: x; E: x; F: x; G: -10; H: x
6. Cc1nc(NC(=O)c2ccc(Cl)cc2)sc1Cc1ccc2c(c1)OCO2
  A: -452; B: -3; C: -16; D: i; E: -1; F: 79*; G: -16; H: -3
7. Nc1cc(=O)[nH]c(SCC(=O)Nc2cccc(Cl)c2Cl)n1
  A: 0; B: 2; C: -4; D: i; E: 5; F: -14; G: x; H: -5
8. CN(C(=O)COC(=O)c1cccc(S(=O)(=O)N2CCCCC2)c1)C1CCS(=O)(=O)C1 (centres undefined)
  A: x; B: -1; C: 1; D: i; E: x; F: -13; G: x; H: x
9. CN1CCN(C(=O)CSc2nc3c(c(=O)n(C)c(=O)n3C)n2C)CC1
  A: -2; B: -4; C: 5; D: i; E: -4; F: -5; G: 12; H: -10
10. CCOc1ccc(OCCCC(=O)Nc2nc3ccccc3[nH]2)cc1
  A: 19; B: -5; C: -1; D: i; E: 0; F: -11; G: -8; H: -1
11. CCC(=O)Nc1ccc(/C(C)=N/NC(=O)c2c(Br)c(C)nn2C)cc1
  A: 12; B: x; C: x; D: i; E: 5; F: -2; G: -6; H: -6
12. Cc1ccc(C(=O)NCC(=O)OCCOc2cccc(Cl)c2)cc1
  A: 7; B: 5; C: 9; D: i; E: x; F: -3; G: x; H: x
13. COc1ccccc1N1CCN(C(=O)c2ccc(CN3CCc4ccccc4C3)cc2)CC1
  A: 15; B: -4; C: -4; D: i; E: -3; F: 45; G: -4; H: 1
14. Cc1cc(C(=O)Nc2ccccc2C)on1
  A: -9; B: 0; C: 2; D: i; E: 5; F: x; G: -4; H: 2
15. CCOC(=O)c1cc(-c2ccccc2)n(CC(=O)Nc2cc(OC)cc(OC)c2)c1C
  A: 18; B: -4; C: -2; D: i; E: -2; F: -5; G: -17; H: -7
16. Fc1ccccc1-c1nnc2n1N=C(c1ccc(OC(F)F)c(OCC3CC3)c1)CS2
  A: -3; B: 4; C: 1; D: x; E: x; F: x; G: -17; H: x
17. CN(C)CCCN(C(=O)CCc1ccccc1)c1nc2ccc(Cl)cc2s1
  A: -3; B: -7; C: -8; D: i; E: -4; F: 70; G: x; H: -11
18. CCOC(=O)C1=C(COC(=O)CNS(=O)(=O)c2ccc(NC(C)=O)cc2)NC(=O)NC1C (centres undefined)
  A: -6; B: -4; C: 1; D: x; E: x; F: x; G: -7; H: x
19. CCN(C(=O)CSc1ncccc1C(=O)OC(C)C)c1cccc(C)c1
  A: 6; B: -3; C: -1; D: i; E: -8; F: 1; G: -7; H: 2
20. CC(=O)N1CCCc2cc(S(=O)(=O)N3CCCC(C(=O)N4CCN(c5cc(C)ccc5C)CC4)C3)ccc21 (centres undefined)
  A: 17; B: 4; C: -28; D: i; E: 4; F: 6; G: -11; H: -17
21. CN1COc2ccc3ccccc3c2C1
  A: 11; B: -4; C: 1; D: i; E: -4; F: -14; G: -18; H: 5
22. CCC(C)N(C(=O)CSc1ncnc2c1cnn2-c1ccccc1)C1CCS(=O)(=O)C1 (centres undefined)
  A: 31; B: -1; C: -18; D: i; E: x; F: -6; G: x; H: x
23. CC(C)Cc1nc(N2CCCCC2)c(C#N)c2c1CCC2
  A: -32; B: -4; C: 2; D: i; E: -3; F: -14; G: -13; H: 13
24. Cc1c(C(=O)N2CCCC2)oc2ccc(Br)cc12
  A: -2; B: -2; C: -2; D: i; E: -10; F: x; G: -10; H: 2
25. Cc1ccc(S(=O)(=O)CCC(=O)OCC(=O)N(C)C2CCS(=O)(=O)C2)cc1 (centres undefined)
  A: -10; B: -2; C: 4; D: i; E: x; F: -5; G: x; H: x
26. CC(=O)Nc1ccc(S(=O)(=O)Nc2cc([N+](=O)[O-])ccc2C)cc1
  A: 8; B: -1; C: -1; D: i; E: 19; F: x; G: x; H: -6
27. CCN(CC(=O)Nc1ccc(OC)cc1)C(=O)COc1cccc2c1OC(C)(C)C2
  A: -2; B: -2; C: 0; D: i; E: x; F: -5; G: 2; H: x
28. CC(NC(=O)c1ccco1)c1cccc2ccccc12 (centres undefined)
  A: -55; B: -6; C: 0; D: i; E: -3; F: 8; G: -7; H: 1
29. c1ccc(Nc2nc(-c3ccccc3)nc3ccccc23)cc1
  A: 2; B: -3; C: -4; D: i; E: -4; F: 49; G: -5; H: 2
30. CCOc1cc(C(=O)OCc2ccc(OC)cc2)ccc1OCC(=O)N1CCOCC1
  A: x; B: 7; C: 2; D: x; E: x; F: -14; G: 7; H: x
31. Cc1ccsc1C(=O)NNC(=O)C1CC=CCC1C(=O)O (centres undefined)
  A: -25; B: 5; C: 4; D: i; E: 15; F: 12; G: x; H: 1
32. Cc1noc(C)c1S(=O)(=O)Nc1ccc(C(C)C)cc1
  A: -13; B: 2; C: -2; D: i; E: -1; F: -6; G: -12; H: 2
33. Cn1cnnc1SCC(=O)Nc1ccc(Cl)cc1
  A: -1; B: 1; C: 0; D: i; E: -4; F: -11; G: -12; H: -9
34. CCOC(=O)C1=C(C)NC(C)=C(C(=O)OCC)C1C(=O)OCC(N)=O
  A: -20; B: 5; C: 2; D: i; E: 28; F: -4; G: -13; H: -9
35. Oc1ccccc1-c1cc(-c2ccccc2)no1
  A: x; B: 1; C: -5; D: i; E: 10; F: 8; G: -20; H: -1
36. Cc1c(Br)c(C(=O)NNC(=O)c2ccc(C(C)(C)C)cc2)nn1C
  A: -21; B: 4; C: 4; D: i; E: 1; F: 3; G: x; H: -10

Filtered by structure, the entries above with a halogen.
Screens by letter: A = Env fusion inh; B = MT1-MMP act inh; C = MT1-MMP act inh RFP; D = Rce1 inhib; E = PABP FP inh; F = CSC inhib; G = UUG fidelity; H = eIF4H FP inh
4. Cc1c(NS(=O)(=O)c2cc(C(=O)NCc3cccnc3)cc(Cl)c2Cl)c(=O)n(-c2ccccc2)n1C
  A: -12; B: 0; C: -2; D: i; E: x; F: 19; G: -3; H: x
6. Cc1nc(NC(=O)c2ccc(Cl)cc2)sc1Cc1ccc2c(c1)OCO2
  A: -452; B: -3; C: -16; D: i; E: -1; F: 79*; G: -16; H: -3
7. Nc1cc(=O)[nH]c(SCC(=O)Nc2cccc(Cl)c2Cl)n1
  A: 0; B: 2; C: -4; D: i; E: 5; F: -14; G: x; H: -5
11. CCC(=O)Nc1ccc(/C(C)=N/NC(=O)c2c(Br)c(C)nn2C)cc1
  A: 12; B: x; C: x; D: i; E: 5; F: -2; G: -6; H: -6
12. Cc1ccc(C(=O)NCC(=O)OCCOc2cccc(Cl)c2)cc1
  A: 7; B: 5; C: 9; D: i; E: x; F: -3; G: x; H: x
16. Fc1ccccc1-c1nnc2n1N=C(c1ccc(OC(F)F)c(OCC3CC3)c1)CS2
  A: -3; B: 4; C: 1; D: x; E: x; F: x; G: -17; H: x
17. CN(C)CCCN(C(=O)CCc1ccccc1)c1nc2ccc(Cl)cc2s1
  A: -3; B: -7; C: -8; D: i; E: -4; F: 70; G: x; H: -11
24. Cc1c(C(=O)N2CCCC2)oc2ccc(Br)cc12
  A: -2; B: -2; C: -2; D: i; E: -10; F: x; G: -10; H: 2
33. Cn1cnnc1SCC(=O)Nc1ccc(Cl)cc1
  A: -1; B: 1; C: 0; D: i; E: -4; F: -11; G: -12; H: -9
36. Cc1c(Br)c(C(=O)NNC(=O)c2ccc(C(C)(C)C)cc2)nn1C
  A: -21; B: 4; C: 4; D: i; E: 1; F: 3; G: x; H: -10

Screens as filed in PubChem.
